Compound activity from PubChem BioAssay.
Vaccinia mCherry: inhibitors of vaccinia virus infection (mCherry reporter signal) | AID 720579 | actives 0.63% (n = 310,000) | Vaccinia virus mCherry reporter infection, fluorescence; about a quarter of the inactives have no number | Potency, µM (titrated, usually from 36.5 µM), inactives show at the top dose activity change, negative = inhibition, actives largely listed as inhibitors; active = well fitted inhibition curve with a large enough effect; inconclusive = small, poorly fitted or top-dose-only effect; inactive = no such curve, though single readings can be large or run the other way; tested in A549 cells; also: nearly all actives have a fitted effect of over 35% in size; inactives centre near -10
VACV Venus inh: inhibitors of vaccinia virus (Venus reporter) | AID 720580 | actives 0.46% (n = 330,000) | Potency, µM (series often up to 36.5 µM), for inactives: top-dose activity change, negative = inhibition, usual class: inhibitors | Vaccinia virus Venus reporter expression, fluorescence; active means well fitted inhibition curve with a large enough effect; inconclusive means small, poorly fitted or top-dose-only effect; inactive means no such curve, though single readings can be large or run the other way; tested in A549 cells; also: nearly all actives have a fitted effect of over 30% in size; inactives centre near -10
* marks the source's active call; other numbers are inactive results; i = inactive; ? = inconclusive; · = not tested or not shown; & = joins results of further samples; [ ] = another dose, or the depositor's remark. % is scaled to controls: 0 for no effect and ±100 for the full control effect; potency is read from the fitted curve at half-maximal effect.

SMILES,VACV Venus inh,Vaccinia mCherry
Cc1ccc(-n2c(/C=C/c3ccccc3)nc3ccccc3c2=O)cc1Cl,-19%,-21%
COc1ccc(C(=O)CCN2CCc3cc(OC)c(OC)cc3C2)cc1,-8%,-21%
CC1CC(C)CN(C(=O)c2cc3cc(Br)cc(Br)c3o2)C1 (centres undefined),-17%,-23%
CCN(c1ccccc1)S(=O)(=O)c1ccc(C(=O)OC(C)C(=O)NCCC2=CCCCC2)cc1 (centres undefined),-1%,i
COc1cc2cnc(-c3ccccc3)c(-c3ccc(C#N)cc3)c2cc1OC,-28%,i
CCN1CCN(c2cc(C)c3cc(NC(=O)c4cccs4)ccc3n2)CC1,-25%,-18%
O=C1NC[C@H](CCCCN2C[C@H](Cc3ccc(O)cc3)N(CCc3ccccc3)C(=O)C2=O)N(CC2CCCCC2)C1=O,7%,-4%
O=C(CN(C(=O)c1csnn1)c1cccc2c1CCCC2)NC1CCCC1,-8%,-6%
Cc1oc2ncn(CC(C)C)c(=O)c2c1C(=O)Nc1cc(F)ccc1F,4%,-8%
Cc1cc(C)nc(N2CCC(C(=O)NCc3ccccc3)CC2)n1,-9%,i
O=C(Nc1nnc(SCc2ccc(Cl)cc2)s1)C1CCCO1 (centres undefined),-8%,-1%
COc1ccc(/C=C/C(=O)N2CCN(c3ccccn3)CC2)cc1OC,-3%,-6%
Cc1cccc(N2CCN(C(=O)CC(NC(=O)c3ccccc3Cl)c3ccccc3)CC2)c1C (centres undefined),-22%,i
O=C(/C=C/c1cc([N+](=O)[O-])ccc1OC(F)F)Nc1ccc(OC(F)F)cc1,-9%,-22%
COCCNC(=O)CSc1c2c(nc3ccc(Cl)cc13)CCCC2,-12%,-19%

Next compounds:
SMILES,VACV Venus inh,Vaccinia mCherry
O=C(COC(=O)/C=C/c1ccccc1Cl)NC1CC1,-9%,0%
Cc1oc(C(C)(C)C)cc1C(=O)Nc1ccc(C(=O)O)cc1,-14%,·
CCOC(=O)c1sc(=S)n(Cc2ccccc2)c1N,-23%,-8%
O=C(c1cccc(Cl)c1Cl)N(Cc1ccco1)Cc1cccs1,-3%,25%
Cc1ccc(CCNC(=O)NC(C)(C)C)cc1,-1%,-10%
Cc1ccc(N=C2SC(C(=O)NCCc3ccccc3)CC(=O)N2C)cc1C (centres undefined),-28%,-7%
O=C(Nc1c(C(=O)N2CCN(c3ccc(F)cc3)CC2)oc2ccccc12)c1c(F)cccc1F,-5%,-17%
CN(CC(=O)Nc1ccc(F)cc1)C(=O)c1ccc(-c2ccc(F)cc2)o1,-24%,-8%
CCCNC(=O)c1cnc2c(-c3ccc(OCC)c(OCC)c3)c(C)nn2c1-c1ccccc1,-16%,-8%
CCC(C)(C)n1nnnc1CN(Cc1cc2cc(OC)c(OC)cc2[nH]c1=O)C1CCCC1,9%,·
CN1C(=O)C2(c3ccccc31)N(C)CC(c1ccccn1)C21SC(=S)N(Cc2ccco2)C1=O (centres undefined),-19%,-21%
Cc1ccc(-n2c(CNc3cccc(Cl)c3)n[nH]c2=S)cc1,6%,-12%
COc1ccc(CNC(=O)COC(=O)/C=C/c2cccc(Br)c2)cc1OC,0%,-2%
O=C(COC(=O)CN1C(=O)NC2(CCCC2)C1=O)Nc1c(Cl)cccc1C(F)(F)F,-10%,-17%
COC(=O)[C@]12CCCCC=C1N(CCC1=CCCCC1)C(=O)[C@H](CC(=O)N1CCOCC1)C2,7%,i

(more compounds)
SMILES,VACV Venus inh,Vaccinia mCherry
CCOC(=O)c1ccccc1NC(=O)COc1coc(CN2CCc3ccccc32)cc1=O,-24%,-21%
NC(=O)C1(N2CCCCC2)CCN(c2ccc3nnc(-c4ccccc4)n3n2)CC1,?,-29%
Cc1cc(CNC(=O)COC(=O)Cn2[nH]c(=O)c3ccccc3c2=O)cc(C)c1O,-20%,i
FC(F)(F)c1cc(Cl)c2nc(-c3cccc(Cl)c3)c(Cc3cccc(Cl)c3)n2c1,9%,35%[activator]
COC(=O)c1cc(NC(=O)c2ccc3c(c2)NC(=O)c2ccccc2S3)cc(C(=O)OC)c1,?,?
CN1CCN(C(=S)c2cn(Cc3ccc(Br)cc3)c3ccccc23)CC1,-14%,?
Cc1c(/C=C(\C#N)c2nn(-c3ccccc3)c(N)c2C#N)c2ccccc2n1Cc1ccc(F)cc1,18%,-11%
CC(=O)Nc1cccc(-c2csc(C(C)(O)c3ccc(F)c(F)c3)n2)c1 (centres undefined),-21%,?
c1ccc(-n2ncc3c(NCCN4CCCCC4)ncnc32)cc1,0%,·
CC(=O)NC1=NC(=O)CS1,0%,-13%
COc1ccc(N2CC(NC(=O)COc3ccc4ccccc4c3)CC2=O)cc1 (centres undefined),-15%,-16%
Cc1cc2ccccn2c1C(=O)c1nc(N2CCOCC2)ncc1Cl,-19%,-6%
CC(=O)c1ccc(NC(=O)CSc2nnc3ccc(-c4ccccn4)nn23)cc1,-9%,-6%
COc1ccc(C2C=C(c3ccc(C)cc3)Nc3c(C(=O)Nc4ccccc4)cnn32)cc1 (centres undefined),-25%,-20%
Cc1ccc(NC(=O)CN2C(=O)COc3ccc(S(=O)(=O)N4CCOCC4)cc32)cc1N(C)C,-10%&-4%,-15%&1%

Some of the entries so far, with values under each structure.
Values run as follows: VACV Venus inh, Vaccinia mCherry
CC(=O)c1ccc(NC(=O)CSc2nnc3ccc(-c4ccccn4)nn23)cc1
  -9%, -6%
Cc1cc(CNC(=O)COC(=O)Cn2[nH]c(=O)c3ccccc3c2=O)cc(C)c1O
  -20%, i

Continued.
SMILES,VACV Venus inh,Vaccinia mCherry
CC(C(=O)NNS(=O)(=O)c1cccc(C(F)(F)F)c1)n1nnc(N2CCOCC2)n1 (centres undefined),-13%,-19%
Cc1ccc(OCCCCn2c(-c3ccc(Cl)cc3)nc3ccccc3c2=O)cc1,12%,-6%
O=C(CSc1nnc(-c2ccccc2Cl)o1)Nc1ccccn1,2%,-1%
CCC(=O)Nc1cccc(C2=NOC3(C2)C[C@@H](C(N)=O)N(C(=O)c2ccc(OC)cc2)C3)c1 (some centres undefined),9%,-15%
Cc1ccc(NC(=O)COC(=O)C(NS(=O)(=O)c2ccc(Cl)cc2)C(C)O)cc1 (centres undefined),-10%,-13%
COCc1cc(C)nc(N2CCc3ccccc32)c1C#N,-17%,-7%
COc1cc(C=NC2CCCCC2)ccc1O,-10%,i
O=C(C(=O)N1CCOCC1)c1cn(Cc2ccccc2)c2ccccc12,-10%,i
CC1CC(=O)Nc2ccccc2N1C(=O)CN1CCN(C=O)CC1 (centres undefined),-6%,-1%
COc1cc2[nH]c(=O)n(CCC(=O)N3CCc4ccccc4C3)c(=O)c2cc1OC,-13%,-11%
CCOc1ccc(NC(=O)NC(C)c2ccc3c(c2)OCO3)cc1 (centres undefined),0%,-13%
COc1ccc(OC)c(/C=N/NC(=O)CSc2nnc(C)n2-c2ccccc2)c1,-22%,·
COc1ccc2c(c1)c(CC(=O)Nc1cc(C)c(OC)c(C)c1)c(C)n2C(=O)c1ccc(Cl)cc1,-15%,-15%
C=CCOc1ccc(C(=O)c2ccccc2)c(OCC(=O)NC2(C#N)CCCC2)c1,-29%,-29%
CCCn1c(=O)c2ccccc2n2c(Sc3nnnn3-c3ccccc3)nnc12,-2%,i

(list continues)
SMILES,VACV Venus inh,Vaccinia mCherry
O=c1ccn([C@@H]2O[C@H](COP(=O)(O)O)[C@@H](O)[C@H]2O)c(=O)[nH]1,-12%,i
CCN(CC)c1cc(Cl)c2nonc2c1N,-5%,-20%
CCOc1ccc(NC(=S)NNC(=O)CC(C)O)cc1 (centres undefined),-3%,-11%
O=C1c2oc3ccccc3c(=O)c2C(c2cccnc2)N1CCCN1CCOCC1 (centres undefined),-14%,-21%[1.46 µM]
COc1ccc(CNC(=O)[C@@H](NC(=O)C2CCN(C(=O)[C@@H](N)CC(C)C)CC2)C(C)C)cc1,-1%,-1%
COc1ccc(-c2noc(CCC(=O)N(C)c3cc(Cl)ccc3OC)n2)cc1,2%,-6%
CCCCN(C)C(=O)c1nc2ccccn2c1CNC1CCC1,-26%,-20%
C#CCCOC(=O)N1C2=NC(C(=O)OC)=C(C(=O)OC)[C@@H]3N(C)c4ccccc4[C@]23C[C@H]1CO,-9%,-10%
CCCCCNC(=O)C(c1ccc(C#N)cc1)n1c(=O)c(-c2ccco2)nc2ccccc21 (centres undefined),-8%,-6%
O=C(Nc1cccc(-c2nnc(-c3ccccc3)o2)c1)c1ccco1,-9%,-3%
C=CCNC(=S)NNC(=O)c1ccccc1OCC,1%,1%
CC1(C)Cc2ccccc2-c2nnc(-c3ccc4ccccc4n3)n21,-5%,·
CCC(=O)Nc1cc(-c2nc3cc(C)cc(C)c3o2)ccc1C,-20%,-18%
CC(NC(=O)c1ccco1)C(=O)Nc1nccs1 (centres undefined),-8%,-6%
O=C(NNc1ccc([N+](=O)[O-])cc1)C1C2CCCCC21 (centres undefined),-5%,-9%

The results go on.
SMILES,VACV Venus inh,Vaccinia mCherry
O=C(COc1nc2ccccc2nc1N1CCOCC1)Nc1ccc(S(=O)(=O)N2CCCC2)cc1,-6%,i
CC(=O)Nc1cc2c(cc1C(C)=O)OCCO2,-10%,·
Cc1ccc(NC(=O)/C=C/c2ccc(Cl)cc2)c(Br)c1,1%,4%
Cc1cc(C)c(S(=O)(=O)N2CCCCC2CCNC(=O)C(=O)NCc2cccnc2)c(C)c1 (centres undefined),-18%,-19%
COc1cc(NC(=O)c2cc(C(C)C)on2)c(OC)cc1Cl,-4%,-4%
CCc1nc2ccc(C(=O)N3CCN(C(=O)c4ccco4)CC3)cn2c1N(C)C(=O)COc1ccccc1,-4%,3%
COc1ccc(C(=O)Nc2onc3c2CCCC3)cc1,-12%,-13%
Cc1ncoc1C(=O)NCc1nc(-c2cccc(NC(=O)c3ccccn3)c2)oc1C,-16%,-28%
CCC1=[N+](C)CCn2c(C)ccc21,0%,-5%
COc1ccccc1CNC(=O)/C=C/C(=O)O,-1%,-14%
CCOc1ccc(N(C)c2ccc(/C=C3/SC(=S)NC3=O)cc2)cc1,74%[activator],-1%
O=C(CN(Cc1cccs1)C(=O)CSc1nnc(COc2ccccc2)o1)NC1CCCC1,-26%,-27%
NC(=O)CCS(=O)(=O)CCN1CCN(S(=O)(=O)c2ccc3c(c2)CCC3)CC1,-13%,-10%
CCN(CC)CCN1C(=O)C(O)=C(C(=O)c2cc3cccc(OC)c3o2)C1c1cccs1 (centres undefined),12%,0%
CN(CC(=O)Nc1ccc(F)cc1)C(=O)COC(=O)Cc1c(F)cccc1Cl,-20%,i

Looked up by compound from the entries so far:
SMILES,VACV Venus inh,Vaccinia mCherry
O=C(COC(=O)CN1C(=O)NC2(CCCC2)C1=O)Nc1c(Cl)cccc1C(F)(F)F,-10%,-17%
COc1cc(C=NC2CCCCC2)ccc1O,-10%,i

The list continues:
SMILES,VACV Venus inh,Vaccinia mCherry
CCCCCCCC(=O)N1c2ccccc2NC(=O)C1CC(=O)Nc1ccc(C(=O)O)cc1 (centres undefined),-29%,4%
CCC(Sc1nc2ccccc2c2nc(-c3ccccc3)nn12)C(=O)Nc1cccc(OC)c1 (centres undefined),-24%,-25%
CCOC(=O)C1CCN(C(=S)Nc2cccc(C)c2)CC1,-17%,i
CCN(C[C@H]1N[C@@](CC)(C(=O)OC)[C@H]2C(=O)N(Cc3ccccc3)C(=O)[C@@H]12)C(=O)Nc1ccc(C(F)(F)F)cc1,-16%,i
O=C(C[C@H]1C[C@H](C(=O)N2CCOCC2)[C@@]2(CCC3CCCC3)c3[nH]c4cc(-c5ccco5)ccc4c3CCN2C1=O)NCC12CC3CC(CC(C3)C1)C2,?,?
Cc1onc(-c2ccccc2Cl)c1C(=O)N1CCN(C/C=C/c2ccccc2)CC1,-22%,-15%
COc1ccc(/C=N/NC(=O)C2C(=O)NCC2c2ccccc2)c(OC)c1 (centres undefined),-7%,-16%
C/C(=N\NC(=O)c1cnccn1)c1ccc([N+](=O)[O-])cc1,-2%,i
CC1(C)CC(NC(=O)c2ccccc2)CC(C)(C)N1,-4%,i
O=C(Cn1cnc2ccccc21)c1ccc(Cl)cc1,-13%,-16%
Cc1nnc(SCc2ccccc2CSc2nnc(C)s2)s1,1%,i
COc1ccccc1C1/C(=C(/O)c2ccc(C)cc2)C(=O)C(=O)N1Cc1ccco1 (centres undefined),-11%,?
Cc1cccc(NS(=O)(=O)c2cc(C(=O)N3CCc4ccccc4C3)ccc2Cl)c1C,-7%,-14%
COC(=O)[C@@]1(C)[C@H]2C(=O)N(Cc3ccccc3)C(=O)[C@H]2[C@H]2CN=C(SCC3CC3)N21,-8%,4%
NC(=O)C1CCN(Cc2nc(-c3cccs3)no2)CC1,-10%,-20%
CCO[C@@H]1OC(C(=O)NCc2nc3ccccc3[nH]2)=C[C@H](c2coc3ccccc3c2=O)[C@H]1CCCO,-13%,7%
CN1C(=O)c2cccc(NC(=O)C3CCCCC3)c2C1=O,-7%,i
COc1ccccc1NC(=O)C(C/C=C(\C)Cl)C(C)=O (centres undefined),-18%,-1%
